# Compound activity: PubChem, Broad Institute
# STK33 inh: inhibitors of purified STK33 kinase, primary screen, biochemical, ADP-Glo luminescence, homogeneous, cell-free. Serine/threonine-protein kinase 33 (Homo sapiens), Q9BYT3. MBP phosphorylation. inhibition, % at 10 µM. actives 0.073% (n = 320,000);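 active = inhibition at or above 25%, using the most active replicate where run in duplicate; inactive = inhibition below 25%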
# Target sequence (Q9BYT3 whole entry, looked up): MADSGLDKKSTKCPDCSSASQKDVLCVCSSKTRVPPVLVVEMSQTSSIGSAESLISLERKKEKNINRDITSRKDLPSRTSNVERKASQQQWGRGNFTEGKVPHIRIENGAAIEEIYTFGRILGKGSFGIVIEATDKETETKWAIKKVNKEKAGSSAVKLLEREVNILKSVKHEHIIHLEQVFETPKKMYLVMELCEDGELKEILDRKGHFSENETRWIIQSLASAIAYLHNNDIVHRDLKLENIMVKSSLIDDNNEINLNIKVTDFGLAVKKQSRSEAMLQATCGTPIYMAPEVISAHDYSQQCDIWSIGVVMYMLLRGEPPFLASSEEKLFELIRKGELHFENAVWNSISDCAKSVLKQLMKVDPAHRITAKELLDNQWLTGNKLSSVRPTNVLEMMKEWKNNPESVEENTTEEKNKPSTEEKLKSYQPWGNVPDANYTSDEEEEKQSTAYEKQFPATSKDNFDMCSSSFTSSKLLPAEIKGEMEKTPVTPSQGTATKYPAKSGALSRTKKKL
# Numbers without * were called inactive. These rows are one share of the data, and most or all hits are left out here.
SMILES,STK33 inh
O=[N+]([O-])c1ccc(O)c([N+](=O)[O-])c1,0.0
O=C(Cn1cc(C=C2C(=O)NC(=O)NC2=O)c2ccccc21)NCC1CCCO1 (stereo not given),-1.9
O=C(O)CCn1cc(C=C2C(=O)NC(=S)NC2=O)c(-c2cccc(Cl)c2)n1,-1.3
COc1ccc(-c2nn(CCC#N)cc2C(=O)NCc2ccccc2)cc1,-1.0
CC(C)Sc1nnc(OC(=O)N(C)C)n1-c1ccccc1,-2.8
C/C(=N\Nc1ccccc1)c1c(O)n(-c2ccccc2)c(=O)[nH]c1=O,-1.2
O=C(COc1ccc2ccc(=O)oc2c1)N1C[C@H]2C[C@@H](C1)c1cccc(=O)n1C2,-0.6
NC(Cc1ccccc1)c1nc(-c2ccccc2)no1 (stereo not given),-1.2
CN(C(=O)Oc1cccc2cccnc12)c1ccccc1,0.3
COc1ccc(C2=NS(=O)(=O)N(C)C(C(=O)N3CCC4(CC3)OCCO4)=C2)cc1OC,0.3
NCCCC(=O)OC1N=C(c2ccccc2Cl)c2cc(Br)ccc2NC1=O (stereo not given),-2.0
CCCCc1nc2ccccc2c(=O)n1-c1ccc(O)cc1,0.9
Cn1c(O)c(C=NCCN2CCNCC2)c(=O)n(C)c1=O,-1.8
O=C(Cc1ccc(Br)cc1)N1CCN(Cc2ccccc2)CC1,-6.1
COc1ccc(-n2c(C)cc(C(=O)C[N+]34CCN(CC3)CC4)c2C)cc1,-1.6
Cc1cccc(N2CCN(CCc3ccccc3)CC2)c1C,0.7
COc1ccc(F)cc1C(=O)C1CCCN(Cc2cnc(C)s2)C1 (stereo not given),0.6
CCC(C)(C)n1nnnc1C(c1cccs1)N1CC=C(c2ccc(F)cc2)CC1 (stereo not given),0.1
CN(C)C1(CNC(=O)c2cc(S(=O)(=O)N3CCOCC3)c(Cl)cc2Cl)CCCCC1,-0.9
Cc1cc(C)cc(N2C(=O)NC(=O)/C(=C\C=C\c3ccco3)C2=O)c1,-0.6
Cn1cc(C(=O)N2CCCCC2)c2ccccc21,1.1
COc1ccc(CCNCc2ccc(F)cc2)cc1OC,-1.2
Cc1nnc(SCc2nc3ccccc3c(=O)n2-c2ccccc2Cl)n1N,0.2
CN1C(=O)N(C)C(=O)C(CCc2ccncc2)(CCc2ccncc2)C1=O,-0.9
NS(=O)(=O)c1ccc(-c2ccc(C=C3C(=O)NC(=O)NC3=O)o2)cc1,-12

# 4 structures from above, sorted by length of the SMILES, ascending:
SMILES,STK33 inh
Cn1cc(C(=O)N2CCCCC2)c2ccccc21,1.1
NC(Cc1ccccc1)c1nc(-c2ccccc2)no1 (stereo not given),-1.2
O=[N+]([O-])c1ccc(O)c([N+](=O)[O-])c1,0.0
COc1ccc(-c2nn(CCC#N)cc2C(=O)NCc2ccccc2)cc1,-1.0

# Continuation.
SMILES,STK33 inh
CCCCCn1c(=O)c(C(=O)NCCc2ccccc2)c(O)c2ccccc21,-0.9
C=CCn1c(O)c(C(C)=NCc2cc(OC)cc(OC)c2)c(=O)[nH]c1=O,-2.9
CCOc1ccccc1N1C(=O)NC(=O)/C(=C/c2ccc3c4c(cccc24)CC3)C1=O,-0.9
C#C[C@]1(O)CC[C@H]2[C@@H]3CCC4=CC(=O)CC[C@]4(C)[C@H]3CC[C@@]21C,-0.8
O=P(/C(=N/O)N1CCOCC1)(N1CCOCC1)N1CCOCC1,-1.1
COc1cccc(Oc2coc3cc(OC(=O)N(C)C)ccc3c2=O)c1,0.8
COc1ccc(C2CC(c3c(O)n(CCc4ccccc4)c(=O)[nH]c3=O)=NN2)cc1OC (stereo not given),-2.5
O=P(C(c1c[nH]c2ccccc12)N1CCOCC1)(N1CCOCC1)N1CCOCC1 (stereo not given),-2.2
CCN1C(=O)NC(=O)/C(=C\c2cn(CC(=O)N3CCCCC3C)c3ccccc23)C1=O (stereo not given),0.9
CC(C)C(=O)c1cn(Cc2ccccc2C#N)c2ccccc12,-0.8
COc1ccc(C2(c3cccc(O)c3OC)CCN(C(C)=O)CC2)cc1O,-0.1
O=C(COc1ccc(Cl)cc1)NCCc1cnc[nH]1,0.5
Cn1c(O)c(/C=N/NC(=O)c2ccncc2)c(=O)n(C)c1=S,0.4
COc1ccc(OCC(=O)N2CCN(C3CCC(c4ccccc4)CC3)CC2)cc1 (stereo not given),-1.5
COc1cc(/C=C2\C(=O)NC(=O)N(c3ccccc3)C2=O)cc(OC)c1O,1.7
COc1ccc(Cn2c(O)c(C=NCCCn3ccnc3)c(=O)[nH]c2=O)cc1,-0.6
COc1ccc(CCNCc2ccccn2)cc1OC,-4.0
O=C1/C(=C\c2cc3c(cc2Br)OCO3)N2CCC1CC2,4.5
C=CCN1C(=O)/C(=C/c2ccc3c(c2)CCCN3CCC)C(=O)NC1=S,-0.8
O=C(C(Cc1ccccc1)NS(=O)(=O)c1cccc2nsnc12)N1CCC2(CC1)OCCO2 (stereo not given),-0.8
CC(C)N1CCN(Cc2cccc3c2OCO3)CC1CCO (stereo not given),1.1
Cc1ccc(C(O)P(=O)(Oc2ccccc2)Oc2ccccc2)cc1 (stereo not given),0.3
O=C(COC(=O)Cc1ccccc1)Nc1cccnc1Cl,0.1
CCN(CC)CCNC(=O)c1c(O)c2ccccc2n(Cc2ccccc2)c1=O,0.4
COC(=O)CSC1=NN1c1cc(C)nc(N)n1,0.1

# Other compounds.
SMILES,STK33 inh
CN1C(=O)NC(=O)C2(Cc3ccccc3N3CCOCC32)C1=O (stereo not given),-2.0
c1ccc2c(NC3=NCCS3)cccc2c1,2.2
Cc1cccc(NC(=O)C(C)N2CC=C(c3ccccc3)CC2)c1 (stereo not given),-1.5
CC(=NCCC1=CCCCC1)c1c(O)[nH]c(=O)[nH]c1=O,1.3
CC1N(O)C2CCCCCC2N1O (stereo not given),-1.7
O=C1NC(=O)C(CCc2ccncc2)(C2CCCCC2)C(=O)N1,-0.8
CCCCn1c(O)c(C(CC)=NCc2ccco2)c(=O)[nH]c1=O,-2.6
COc1ccc(OC)c([C@@H](O)[C@H](C)NC(C)(C)C)c1,-3.6
CC(C)c1ccc(OCC(=O)N2CCN(C)CC2)c(Br)c1,-1.5
CN(C)[C@@H]1C(=O)C(C(N)=O)=C(O)[C@@]2(O)C(=O)C3=C(O)c4c(O)cccc4[C@@](C)(O)[C@H]3C[C@@H]12,1.2
COC(=O)C1(C(=O)O)Cc2cc([N+](=O)[O-])ccc2N2CCCC21 (stereo not given),-0.1
CC(=NCC1CCCO1)c1c(O)n(C)c(=O)n(C)c1=O (stereo not given),-0.5
COc1ccc(CNCCc2c[nH]c3ccccc23)c(OC)c1OC,-1.3

# Molecules shown so far that contain a nitro group on carbon:
SMILES,STK33 inh
O=[N+]([O-])c1ccc(O)c([N+](=O)[O-])c1,0.0
COC(=O)C1(C(=O)O)Cc2cc([N+](=O)[O-])ccc2N2CCCC21 (stereo not given),-0.1

# Quoted at random: 4 entries already listed, in no set order.
SMILES,STK33 inh
Cc1ccc(C(O)P(=O)(Oc2ccccc2)Oc2ccccc2)cc1 (stereo not given),0.3
C#C[C@]1(O)CC[C@H]2[C@@H]3CCC4=CC(=O)CC[C@]4(C)[C@H]3CC[C@@]21C,-0.8
COc1ccc(CCNCc2ccccn2)cc1OC,-4.0
COc1ccc(C2=NS(=O)(=O)N(C)C(C(=O)N3CCC4(CC3)OCCO4)=C2)cc1OC,0.3

# In the list so far, 2 have a COOH group:
SMILES,STK33 inh
O=C(O)CCn1cc(C=C2C(=O)NC(=S)NC2=O)c(-c2cccc(Cl)c2)n1,-1.3
COC(=O)C1(C(=O)O)Cc2cc([N+](=O)[O-])ccc2N2CCCC21 (stereo not given),-0.1
